GIV-Gai inh – inhibitors of GIV peptide binding to Galpha-i3, primary screen, biochemical, fluorescence polarization, FITC-GIV GBA peptide, rat Galphai3; 210,000 tested, 0.42% active; AID 1224905, 2016; Guanine nucleotide-binding protein G(i) subunit alpha-3 (Rattus norvegicus), P08753; 90 min; hits give low values; scaled: aluminum fluoride 0%, vehicle 100%; percent of control (FP), % (test concentration not listed);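 active means replicate mean at 85% of control or lower, very high polarization wells dropped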;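 further: wells of about 15 µL received 100 nL stock; the first replicate is given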
Target sequence (P08753 whole entry, looked up): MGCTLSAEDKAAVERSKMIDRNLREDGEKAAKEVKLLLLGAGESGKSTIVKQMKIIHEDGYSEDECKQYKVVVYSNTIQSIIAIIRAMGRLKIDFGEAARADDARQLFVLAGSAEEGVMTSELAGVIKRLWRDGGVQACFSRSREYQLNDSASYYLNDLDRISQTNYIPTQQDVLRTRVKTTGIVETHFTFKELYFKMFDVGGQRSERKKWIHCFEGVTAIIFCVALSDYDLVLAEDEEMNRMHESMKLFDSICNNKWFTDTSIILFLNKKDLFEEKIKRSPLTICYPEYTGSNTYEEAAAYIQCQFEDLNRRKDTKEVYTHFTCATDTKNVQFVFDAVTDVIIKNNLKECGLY
Sa growth inh – S. aureus growth inhibition at 42 and 30 °C, primary screen, LtaS inhibitor project, RN4220, two temperatures; OD600, 20 h, 42 °C; hits give low values; relative growth, % (no concentration beside the values); 170,000 tested, 0.53% active; AID 720641, 2013;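 active means growth at 42 °C up to 50% and 20 or more points under that at 30 °C, or under 10% at both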;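 further: 300 nL library stock went into each well; scaled to the means of positive and negative controls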
HCMV UL50-53 inh – inhibitors of HCMV UL50-UL53 interaction, biochemical, HTRF | inhibition, % (concentration not given with the values) | HCMV UL50-UL53 nuclear egress complex (human cytomegalovirus) | 190,000 tested, 0.15% active | normalized percent inhibition;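 active means both replicates at 50% or more, plus weaker picks with an unusually low signal ratio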;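 further: stock transfer was 100 nL into about 20 µL; 0% = negative control wells and 100% = wells with untagged competitor protein; inactives centre near -12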
Sa growth inh second temp – also measured in Sa growth inh; calls as there; relative growth, %; measured here: growth at 30 °C;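 optical density after 20 h as mean of two plates; 100% = untreated growth and lower means inhibition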
Active calls of the source: *; . = no result given; & = joins results of further samples.

SMILES	GIV-Gai inh	Sa growth inh	Sa growth inh second temp	HCMV UL50-53 inh
Cc1cccc(/C=C/c2onc(C)c2S(=O)(=O)N2CCC(C(=O)N3CCCCC3)CC2)c1	106	119	100	.
COCCN1Cc2cccc(C(=O)NCC3CCN(CC(C)C)C3)c2C1=O (stereo unspecified)	102	92	88	-2
Cc1ccc(C(=O)COC(=O)c2cccc(NC(=O)c3ccc(Cl)cc3Cl)c2)cc1	107	90	82	-27
CCOC(=O)C1CCN(C(c2ccc(OCC)cc2)c2c(O)cc(C)n(CCOC)c2=O)CC1 (stereo unspecified)	100	83	89	.
Cc1cc(C(=O)O)cc(=O)[nH]1	111	92	92	-1
Cc1cccc(N(C)C(=O)CCS(=O)(=O)c2ccc3c(c2)n(C)c(=O)c(=O)n3C)c1	101	106	91	-9
O=C1C(=O)N(C2CCN(C(=O)c3ccc(F)cc3)CC2)CCN1Cc1ccc(F)cc1	101&95	93	88	-5
CC(C)=C(C#N)c1nc2ccccc2n1C	.	86	93	-29
CC(C)(C)c1ccc(C(=O)N(CCCN2CCCC2=O)CCC(=O)N2CCNCC2)cc1	108	.	.	-11
Cc1nn(-c2ccccc2)c2sc(C(=O)NN3CCOCC3)cc12	.	106	82	-1
CN(Cc1ccccc1)c1nnc(NC(=O)c2cc(-c3ccc(Br)cc3)on2)s1	111	108	70	.
COc1ccc(CC(=O)NCc2nc3cccnc3n2Cc2ccc(F)cc2)cc1OC	104	108	91	.
CN1CCN(c2ccc(C(=O)O)cc2NS(C)(=O)=O)CC1	104	.	.	-40
COC(=O)c1sccc1NS(=O)(=O)c1ccc(C)cc1	95	121	90	-27
COc1ccc(C2C(=O)c3ccccc3C2=O)cc1	.	97	84	-55
O=C(CSc1n[nH]c(=O)[nH]c1=O)c1ccc(Cl)cc1	103	89	79	-50
Cc1c(NS(=O)(=O)N2CCCCC2)c(=O)n(-c2ccccc2)n1C	101	109	107	-7
O=C([C@@H]1CCCN1C(=O)c1cccs1)N(CC1CCCO1)C1CCS(=O)(=O)C1 (stereo partly specified)	.	91	95	6
NC1(CC(=O)O)CCCCC1	105	120	97	-1
Oc1ccc(/C=N/NC(=S)NCC2CCCO2)cc1 (stereo unspecified)	.	62	88	-39
O=C(c1cc(C2CC2)[nH]n1)n1ccnc1	98	75	90	.
O=C(Cc1ccccc1)Sc1nc2ccccc2[nH]1	.	89	69	0
COC(=O)c1ccc(NC(=O)c2c(NCc3ccc(OC)c(OC)c3)sc3c2CCCC3)cc1	101	95	54	.
COc1cc(NC(=O)CN2C(=O)C(c3ccc(Cl)cc3)=NC23CCCCC3)cc(OC)c1	101	95	91	-4
Cc1ccc(NC(=O)CSc2nc3ccccc3nc2N2CCOCC2)cc1	106	102	91	-24

In a second layout: 6 of the compounds above.
Order of values: GIV-Gai inh | Sa growth inh | Sa growth inh second temp | HCMV UL50-53 inh
O=C([C@@H]1CCCN1C(=O)c1cccs1)N(CC1CCCO1)C1CCS(=O)(=O)C1 (stereo partly specified)
  . | 91 | 95 | 6
NC1(CC(=O)O)CCCCC1
  105 | 120 | 97 | -1
Oc1ccc(/C=N/NC(=S)NCC2CCCO2)cc1 (stereo unspecified)
  . | 62 | 88 | -39
O=C(c1cc(C2CC2)[nH]n1)n1ccnc1
  98 | 75 | 90 | .
O=C(Cc1ccccc1)Sc1nc2ccccc2[nH]1
  . | 89 | 69 | 0
COC(=O)c1ccc(NC(=O)c2c(NCc3ccc(OC)c(OC)c3)sc3c2CCCC3)cc1
  101 | 95 | 54 | .

Other entries follow:
SMILES	GIV-Gai inh	Sa growth inh	Sa growth inh second temp	HCMV UL50-53 inh
CCCCN1CCc2nc(Nc3cccc(OC)c3)ncc2C1	111	.	.	-5
O=C(Nc1c(Cl)cccc1Cl)c1cccc2c1C(=O)N(C1CCCCC1)C2	107	101	81	-9
O=C(Nc1cccnc1)c1ccc(Oc2cc(Cl)cc(Cl)c2)o1	105	106	91	2
Cc1noc(C)c1NC(=O)Nc1cc(C(F)(F)F)cc(C(F)(F)F)c1	108	5.2*	24*	-9
CCOC(=O)c1c(CN2CCOCC2)n(-c2ccccc2)c2cc(Br)c(O)c(CN(C)C)c12	101	.	.	-2
Cc1cccc(CSc2nnc(CCCCCN)o2)c1	102	89	95	4
NC(=O)CSc1ncc(-c2ccccc2)[nH]1	.	104	96	0
CCC(=O)Nc1cc(NC(=O)c2ccco2)ccc1C	104	104	96	-41
Cn1c(SCc2ccc(F)cc2)nc2ccc(C(=O)NCc3ccccc3)cc21	96	106	86	-10
CCC1CCC(C(=O)O)CC1 (stereo unspecified)	106	.	.	10
CCOC(=O)c1cccc(NS(=O)(=O)c2cc(-c3cc(C)[nH]n3)ccc2C)c1	103&107	105	88	7&-14
O=C(Nc1ccc(F)cc1)[C@H](Cc1ccccc1)N1Cc2ccccc2C1=O	104	101	91	-36
CC(C)=CCC(C)(C)C1OCCN1C(=O)c1ccccc1 (stereo unspecified)	.	104	87	-9
O=C1/C(=C/c2ccccc2)CC/C1=C1\SCC(=O)N1c1ccccc1	.	107	89	-17
Cc1cc(C)cc(CC(CC(=O)Nc2nccs2)C(=O)Nc2nccs2)c1 (stereo unspecified)	103	103	97	-3
CC(Sc1nnc(-c2ccc3c(=O)n4c(nc3c2)CCCCC4)o1)C(=O)Nc1ccc(F)cc1 (stereo unspecified)	.	72	91	-18
COC(=O)c1ccc(OCC(O)Cn2cnc3ccccc32)cc1 (stereo unspecified)	106	93	84	-12
CCOC(=O)N1CCN(S(=O)(=O)c2ccc(C(=O)Nc3cccc4c3C(=O)c3ccccc3C4=O)cc2)CC1	102	.	.	-31
CCOc1ccc(C(=O)Nc2cc(-c3ccccc3)no2)cc1	100	90	84	-28
CC(C)Sc1n[nH]c(=O)n1-c1cccc(C(F)(F)F)c1	101	113	76	-5
CCn1nc(C)c(CCN(C)C(=O)Nc2ccc(Cl)cc2)c1C	102	.	.	-8
COC(=O)c1c(N)n(-c2ccc(OC)cc2)c2nc3ccccc3nc12	101	85	87	-51
O=C(Nc1ncn[nH]1)c1ccc2c(c1)S(=O)(=O)c1ccccc1C2=O	.	72	89	-76
Cc1oc(-c2ccc(Cl)cc2)cc1-c1ccn[nH]1	106	100	81	-25
Cc1cccc(-c2noc(-c3ccc(NCc4ccco4)c([N+](=O)[O-])c3)n2)c1	99	104	93	-6
Cc1ccc(Sc2cccc3nc(N)nc(N)c23)cc1	102	73	26	-6&-16
CCC1CC(CSC(=N)N)OC1=O (stereo unspecified)	99	90	94	-7
Cn1nccc1NC(=O)Nc1ccc(Cl)cc1	102	99	89	66*
COCCCNC(=O)c1sc2ncccc2c1-n1cccc1	99	91	84	.
CN(C(=O)COc1cc(C(F)(F)F)nn1C)c1ccccc1	101	.	.	-13
O=C(CN(Cc1ccco1)S(=O)(=O)c1ccccc1)Nc1ccccc1	.	102	100	1
CCN1CCc2c(sc(-n3cccc3)c2C(C)NC(=O)Nc2ccc(F)cc2)C1 (stereo unspecified)	107	.	.	-16
CCOCCCNC(=O)NC(C)c1c(-n2cccc2)sc2c1CCN(CC)C2 (stereo unspecified)	126	93	88	.
COc1ccc(CNC(=O)c2cn(CC(C)C)c(=O)c3cc(OC)c(OC)cc23)cc1	103	99	78	.
Cc1ccc(/C=N/N(C)C2=NCCN2)o1	102	112	91	.
COc1cc(OC)cc(-c2nnc(SC(C)C(=O)NC3(C#N)CCCCC3)o2)c1 (stereo unspecified)	.	77	83	-31
CCOC(=O)c1ccccc1NCn1c(=S)oc2ccccc21	.	97	81	-37
CC1=Nc2cc(C(=O)N3CCCCCC3)ccc2Sc2ccccc21	106	102	90	-5
CCc1c(C)nc2ncnn2c1N1CCN(c2ccc(C)cc2C)CC1	100	.	.	-19
COC(=O)c1cc(-c2ccc(C)cc2)n[nH]1	96	96	81	-30
O=C(Nc1ccc2c(c1)OCO2)c1cccc(Nc2ccnc(-c3ccc(F)cc3)n2)c1	104	.	.	-10
Cc1cc(C)n(-c2ccc(N=NC3=C(O)CCCC3=O)cc2)n1	113	100	96	-172
O=c1c2nncn2ccn1-c1ccc(F)c(F)c1	114	92	88	-2
Cc1[nH]nc2nc3c(c(OC(=O)c4ccccc4)c12)c(=O)n(C)c(=O)n3C	.	125	87	-4
COc1ccc(C)c2sc(N(Cc3cccnc3)C(C)=O)nc12	103	116	62	.
Cc1noc(C)c1CCNC(=O)c1ccc(CN2C(=O)CCn3nccc32)cc1	101	.	.	-13
Nc1cc(N)nc(SCc2ccc(Cl)cc2)n1	104	107	42	-29
O=C(COc1cc2oc(=O)c3c(c2cc1Cl)CCC3)N1CCCC1	105	116	72	-5
COCc1cc(C)nc(SCC(N)=O)c1C#N	101	118	86	-25
CCOc1ccc(N2C(=O)c3cc4sccc4n3CC2(C)C(=O)NC2CCC(C)CC2)cc1 (stereo unspecified)	100	.	.	-3

Additional compounds follow:
SMILES	GIV-Gai inh	Sa growth inh	Sa growth inh second temp	HCMV UL50-53 inh
CCOCCCNC(=O)C1c2c(n(C)c3ccccc23)SCC(=O)N1c1cccc(Cl)c1 (stereo unspecified)	100	.	.	-10
COc1ccc(CNC(=O)c2ccc(CN3C(=O)C(C)=C(c4ccc(C)cc4)S3(=O)=O)cc2)cc1	101	93	90	.
O=c1[nH]cnc2c1nnn2Cc1ccccc1F	102	105	86	0
O=C(Cn1nnc2ccccc21)N1CCN(c2ccccc2)CC1	.	109	85	-24
COc1ccc(-c2noc(CN3CCC(C(=O)Nc4ccc(F)cc4)CC3)n2)cc1OC	107	.	.	-2
CCNC(=O)c1cc2n(n1)CCCN(Cc1ccc(C)cc1)C2=O	101	94	95	.
CCOC(=O)c1cc(-c2ccc(OC)c(S(=O)(=O)Nc3cccc(Cl)c3)c2)on1	103	.	.	0
O=C1CC(c2ccccc2)C(=O)N1Cc1ccc(Cl)cc1 (stereo unspecified)	.	133	94	16
N#Cc1c(-c2cccs2)c2c([nH]c1=O)CCCC2	100	102	88	0
Cc1cccc(NC(=O)C(c2ccccc2)N2Cc3ccccc3C2=O)c1C (stereo unspecified)	105	119	92	.
Cc1cc2cc(CNC(=O)NC3CCCCC3)ccc2[nH]1	99	97	75	-31
CCC(Sc1n[nH]c(=O)[nH]c1=O)C(=O)O (stereo unspecified)	102	104	87	.
C=CCn1c(-c2cccs2)nc(-c2ccccc2)c1-c1ccccc1	102	101	89	6
CCCNC(=O)c1sc2nc(C)cc(C)c2c1-n1cccc1	97	86	86	-24
CN(C(=O)COc1cc(C(F)(F)F)n(C)n1)c1ccccc1	103	88	95	28
CC(C)(C)C(=O)CSc1ncnc2sccc12	.	89	87	-2
Cc1ccc(CCNC(=O)c2ccc(NC(=O)N3CC(C)Sc4ccccc43)cc2)cc1 (stereo unspecified)	103&97	107	89	-17&6
Cc1cc(C)cc(OCCn2c(-c3ccc(Cl)cc3)nc3ccccc3c2=O)c1	100	131	92	.
Cc1nc(-c2ccc(Cl)cc2)sc1CCNC(=O)Cc1ccc(F)cc1	107	95	95	.
COc1ccc(C2=NN(CN3C(=O)C(=O)c4ccccc43)C(c3ccccc3)C2)cc1 (stereo unspecified)	101	.	.	-14
COCC(=O)Nc1nc2ccc(OC)cc2s1	102	111	104	7
O=c1[nH]c2cc([N+](=O)[O-])c([N+](=O)[O-])cc2[nH]c1=O	104	.	.	-97&-172
CCc1oc2ccccc2c1C(=O)CCN1CCCCC1	.	41*	83*	6
CCOC(=O)C1CCN(C(=O)CCS(=O)(=O)c2ccc3c(c2)CC(C)N3C(=O)C2CC2)CC1 (stereo unspecified)	107	.	.	-9
CCc1c(O)c2ccccc2[nH]c1=O	101	108	96	-3

Source: PubChem BioAssay
